Bioassay records from PubChem.
gsp ag: qHTS for Agonist of gsp, the Etiologic Mutation Responsible for Fibrous Dysplasia/McCune-Albright Syndrome: qHTS | AID 624287, 2012 | Potency, µM (highest dose often 76.9 µM), without a hit: at the highest dose activation (cAMP increase), actives largely listed as activators | gsp mutant cells, cAMP HTRF, 30 min; control for the full effect not named in the record | 340,000 compounds, 0.13% hits; active = well fitted activation curve with a large enough effect; inconclusive = small, poorly fitted or top-dose-only effect, or another doubt; inactive = no such curve, though single readings can be large or run the other way; cell line not stated here;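 note: phosphodiesterase inhibitor Ro 20-1724 added with compounds to block cAMP breakdown; potency is the fitted concentration of half-maximal effect; nearly all actives have a fitted effect of over 60% in size; about a fifth of the inactives were tested at one dose only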
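Cells in DMEM/10% FBS with G418 were pretreated with compounds in DMSO plus […] (300 uM stock) for 30 min at 37C. cAMP was measured by HTRF (cAMP-d2 plus anti-cAMP antibody-K) after 30 min at room temperature.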
D2 potentiator: Beta-Arrestin HTS for Positive Allosteric Modulators of the Human D2 Dopamine Receptor: Potentiators; D(2) dopamine receptor (Homo sapiens), P14416; DiscoveRx D2 beta-arrestin cells, luminescence, 90 min; 100% = 57 uM dopamine signal; potentiation, % (test concentration not listed); 360,000 compounds, 0.23% hits; active = potentiation of 50% or more; inconclusive = 30% to 50%; inactive = 30% or less;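 note: compound concentration not given in the record; tested on top of an EC20 dose of dopamine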
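PathHunter D2 cells, attached overnight at 37 deg C, received compound in DMSO plus dopamine at EC20 (50 nM final) for 90 min at 37 deg C. Beta-arrestin recruitment was read as luminescence after 1 h with detection reagent at ambient temperature.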
Menin-MLL FL inh: qHTS Assay for Inhibitors Targeting the Menin-MLL Interaction in MLL Related Leukemias: Competition With Fluorescein Labeled MLL-derived Peptide | 290,000 tested, under 10 active | AID 1766, 2009 | FP activity change, % at 61.4 µM | Fluorescence polarization, fluorescein-MLL peptide displacement from menin; inconclusive = falling polarisation curve, or a change in total fluorescence; inactive = total fluorescence flat and polarisation flat or rising; no compound was filed as active; the % refers to the polarisation; negative = inhibition;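 note: % of control where 0% means no effect; inhibitors lower the polarisation; unlabelled MLL peptide was the positive control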
TRPV1 potentiator: HTS Assay for Compounds that Act as Potentiators of the Vanilloid Receptor 1 | TRPV1-expressing cells, Fluo-8 calcium influx, capsaicin EC20 potentiation; host cell line not named in the record; control for the full effect not named in the record | potentiation, % at 8.33 µM | 320,000 compounds, 0.02% hits | AID 540277, 2011; active means potentiation above 80%; inconclusive means 30% to 80%; inactive means below 30%; note: 0% is about no effect
Target sequence (Q8NER1 whole entry, looked up): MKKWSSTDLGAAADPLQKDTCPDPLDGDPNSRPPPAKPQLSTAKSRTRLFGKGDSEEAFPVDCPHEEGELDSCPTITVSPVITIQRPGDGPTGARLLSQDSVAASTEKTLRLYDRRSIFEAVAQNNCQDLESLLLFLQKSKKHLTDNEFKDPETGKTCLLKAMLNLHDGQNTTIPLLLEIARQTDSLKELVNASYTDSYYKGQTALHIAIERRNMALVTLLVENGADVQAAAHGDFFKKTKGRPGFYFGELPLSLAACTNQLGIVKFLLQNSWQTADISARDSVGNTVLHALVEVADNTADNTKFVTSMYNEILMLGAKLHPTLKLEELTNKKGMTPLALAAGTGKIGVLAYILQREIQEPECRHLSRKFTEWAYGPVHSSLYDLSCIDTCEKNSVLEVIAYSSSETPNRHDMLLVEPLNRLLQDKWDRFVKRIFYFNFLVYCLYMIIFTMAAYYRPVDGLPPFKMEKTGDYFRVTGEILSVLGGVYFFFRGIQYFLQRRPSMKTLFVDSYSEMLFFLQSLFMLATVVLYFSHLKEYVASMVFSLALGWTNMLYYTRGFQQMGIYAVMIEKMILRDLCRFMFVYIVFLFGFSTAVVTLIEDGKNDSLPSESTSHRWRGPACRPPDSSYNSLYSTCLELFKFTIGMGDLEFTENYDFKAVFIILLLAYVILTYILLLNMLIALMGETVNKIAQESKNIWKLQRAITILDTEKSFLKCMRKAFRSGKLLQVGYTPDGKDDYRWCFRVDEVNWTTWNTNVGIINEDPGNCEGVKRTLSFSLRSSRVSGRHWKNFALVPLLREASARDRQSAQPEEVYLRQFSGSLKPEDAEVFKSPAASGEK
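Fluo-8 calcium influx in TRPV1-expressing cells, kinetic read (ex 480/em 520 nm). Compound added and read 3 min for agonist activity, followed by capsaicin at EC20 final and 2 min further read for enhancement.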
gsp antagonist: qHTS for Antagonists of gsp, the Etiologic Mutation Responsible for Fibrous Dysplasia/McCune-Albright Syndrome: qHTS | gsp-mutant cells, cAMP HTRF, 30 min; control for the full effect not named in the record | Potency, µM (titrated, usually from 76.9 µM), inactives show at the top dose activity change, negative = inhibition, hits mostly inhibitors | 340,000 compounds, 0.4% hits | AID 624288, 2012; active = falling curve of any shape with a large fitted effect; inconclusive = falling curve, mostly with a smaller effect; inactive = flat or rising curve; cell line not stated here;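 note: intracellular cAMP measured with PDE inhibitor Ro 20-1724 present during compound exposure; potency is the fitted concentration of half-maximal effect; % is set by controls: 0 for no effect and ±100 for the full control effect; nearly all actives have a fitted effect of over 65% in size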
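HTRF cAMP measurement after 30 min RT detection following 30 min, 37C compound treatment alongside […] (added as 300 uM solution) in G418-selected cells seeded at 2000/well and grown 16–24 h.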
ClpP mod: qHTS Assay for Activators of ClpP. ATP-dependent Clp protease proteolytic subunit (Bacillus subtilis (strain 168)), P80244. purified B. subtilis ClpP, FRET peptide cleavage, 20 min. Potency, µM (top dose mostly 57.5 µM), for the others: at the highest dose activity change, negative = active. 340,000 compounds, 1.9% hits. AID 651965, 2013; active = well fitted falling curve with a large enough effect; inconclusive = small, poorly fitted or top-dose-only effect; inactive = no such curve, though single readings can be large or run the other way; note: potency is the fitted concentration of half-maximal effect; the source files actives as falling curves though it sought activators and does not explain the sign; nearly all actives have a fitted effect of over 65% in size; many hits overshoot -100%
Target sequence (P80244 whole entry, looked up): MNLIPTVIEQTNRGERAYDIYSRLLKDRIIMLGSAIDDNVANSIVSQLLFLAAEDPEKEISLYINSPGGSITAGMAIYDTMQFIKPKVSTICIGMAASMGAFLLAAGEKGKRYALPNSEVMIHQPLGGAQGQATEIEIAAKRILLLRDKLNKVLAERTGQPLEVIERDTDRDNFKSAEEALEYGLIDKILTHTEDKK
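ClpP 10 microg/mL final, pH 8 Tris/KCl buffer with BSA, glycerol, Tween-20; compound pinned in; FRET-FV substrate; RT 20 min; Ex320/Em430; ΔFRET vs ADEP 5.8 microM, DMSO, no enzyme.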
Sfp inh: qHTS Assay for Inhibitors of Bacillus subtilis Sfp phosphopantetheinyl transferase (PPTase) | Biochemical Sfp PPTase activity, qHTS | Potency, µM, for inactives: max response, negative = inhibition, most hits filed as inhibitors | 310,000 compounds, 3.5% hits | AID 1490, 2009; active = well fitted inhibition curve with a large enough effect; inconclusive = small, poorly fitted or top-dose-only effect, or another doubt; inactive = no such curve, though single readings can be large or run the other way;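 note: the enzyme is Sfp with the accession as filed and its product quenches rhodamine fluorescence; potency is the fitted concentration of half-maximal effect; 0% = enzyme reaction without inhibitor and -100% = no enzyme wells; top concentration of the series not given in the record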
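With Hepes-Na pH 7.6 buffer containing 10 mM MgCl2, Sfp (15 nM) modified BHQ-2-YbbR (12.5 uM) using rhodamine-CoA (5 uM). Two reads 30 minutes apart at 525/598 nm yielded each well's rate.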
An asterisk follows results filed as active; ? = inconclusive; · = not tested or not shown; & = joins results of further samples; [ ] = remark or other dose.

SMILES	gsp ag	D2 potentiator	Menin-MLL FL inh	TRPV1 potentiator	gsp antagonist	ClpP mod	Sfp inh
CCOc1cc(/C=C(/C#N)C(=O)Nc2ccc(OC)cc2)ccc1OCc1ccc(C(=O)O)cc1	22%	-1	-5.8	11	?	·	-14%
Cc1cc(NC(=O)C2CC(c3ccc(F)cc3)=NO2)n(-c2ccccc2)n1 (stereo not given)	-49%[inhibitor]	-2	1.9	-2	2%	-1.0%	21%
Cc1cc2c(cc1S(=O)(=O)NCc1ccccc1Cl)OCCN2C	-13%	-4	2.6	26	1%	-0.3%&-1.5%	-5%
COc1ccc(C(=O)Nc2nc3ccccc3s2)c(OC)c1	2%	-1	0.2	-28	-31%	·	3%
COc1ccc(C(=O)NNC(=O)CSc2nnc(COc3ccc4ccccc4c3)n2C)cc1	-36%[inhibitor]	3	1.7	17	3%	-9.3%	-23%
NC(=O)c1ccc(N2CCCC2)nc1	1%	2	·	·	-3%	·	·
COc1cccc(Oc2coc3c(CN4CCOCC4)c(O)ccc3c2=O)c1	35%	0	-2.4	-1	1%	20µM*	2%
CCC(=O)Nc1ccc(N2CCOCC2)c(S(=O)(=O)Nc2ccc(OC)cc2)c1	-1%[15.4 µM]	5	5.5	-10	-7%	·	5%
O=C(CSc1nc(C2CCCCC2)nc2ccccc12)N1CCCC1	?	-1	-2.4	-7	-26%	0.1%	6%
Cn1c(COc2ccccc2)nnc1SCCN1CCOCC1	-15%	22	-2.0	0	9%	1.3%	-21%
CCNC(=O)c1c(O)c2ccccc2[nH]c1=O	-21%	-10	7.7	-6	-5%	25µM*	7%
COc1cccc(N2CCN(C(=S)Nc3ccccc3)CC2)c1	0%[15.4 µM]	20	1.9	-7	-10%	-8.1%	8%
CC(C)OCCCNC(=O)c1cccc2c1C(=O)c1ccc(Cl)cc1S2(=O)=O	·	2	·	-8	-17%	1.7%	·
O=C1CC2(CCN(C(=O)c3cccc([N+](=O)[O-])c3)CC2)Oc2ccccc21	5%	6	·	-13	-2%	?	·
O=C(NCCN1CCOCC1)c1ccc(CS(=O)(=O)c2c(Cl)cccc2Cl)o1	-37%[inhibitor]	-1	-4.0	·	12%	0.6%	12%
CCOC(=O)c1sc(NC(=O)C2C3C=CC(C3)C2C(=O)O)nc1C (stereo not given)	12%	-4	-0.5	-6	4%	-1.2%	2%
COC(=O)c1sc2cc(C(F)(F)F)cnc2c1-c1ccccc1	-21%	8	0.0	-5	5%	-2.4%	15%
COc1ccc(CN2CN(S(=O)(=O)c3cccs3)c3nc4ccccc4nc32)cc1	-5%[15.4 µM]	-5	?	13	-7%	·	-2%
CNC(=O)c1c(Br)cnn1-c1ccc(C)cc1	0%[15.4 µM]	-5	0.5	?	6%	·	8%
Cc1ccc(Cn2c(=N)n(CC(O)c3ccco3)c3ccccc32)cc1 (stereo not given)	-21%	-33	1.8	1	14%	-1.1%	-1%
Cc1cc(S(=O)(=O)N2CCN(c3ccccc3O)CC2)c(C)s1	?	0	8.0	-23	-4%	-1.9%	13%
CCn1c(SCC(=O)OC)nc2sc3c(c2c1=O)CCC3	-53%[inhibitor]	-10	2.2	-12	22%	-1.2%	6%
Cc1cc(=O)[nH]c(SCC(=O)NCc2ccco2)n1	-40%[inhibitor]	-19	2.9	22	1%	1.9%	-7%
Cc1ccc(-n2nc(C)c(/C=N/NC(=O)c3cccs3)c2Cl)cc1	-11%	6	8.1	-24	-8%	5.3%	0%
COc1ccc(-c2cn(CCO)c(-c3ccncc3)n2)cc1	3%	-10	·	18	7%	0.0%	·
N#Cc1cccc(NC(=O)COC(=O)c2ccccc2C(=O)c2ccc(Cl)c([N+](=O)[O-])c2)c1	0%[15.4 µM]	-7	3.9	8	?	·	12%
CCOC(=O)Nc1cc(OC)cc2ccc(C)nc12	?	0	·	·	·	-7.1%	·
COc1cccc(C(=O)NC(C)c2ccc(-c3ccccc3)cc2)c1OC (stereo not given)	-12%	-10	3.1	11	-11%	-4.7%	-8%
CCOc1ccc(C(CC(=O)O)NC(=O)COc2ccccc2)cc1 (stereo not given)	-15%	4	2.9	·	-10%	-0.3%	-1%
COc1cc(OC)c(C#N)c(S(=O)Cc2ccccc2)c1 (stereo not given)	-4%	-13	3.0	10	-9%	1.7%	11%
c1nc2sc3c(c2c2nnnn12)CCC3	20%	4	4.9	19	11%	14µM*	-11%
CCCc1nc(SCC(=O)Nc2nnc(CC)s2)c2c(C)c(C)sc2n1	4%	-16	-0.4	·	7%	-1.4%	8%
COC(=O)c1sc(NC(=O)C(C)c2ccccc2)nc1C (stereo not given)	-2%	1	0.3	1	3%	0.5%	-20%
Cc1nnc(NC(=O)CCC(=O)NC2CCCCCCC2)s1	-1%	-11	-1.0	2	11%	·	10%
C#CCOCCOCCOCCNc1nc(N2CCN(C(=O)C(Cc3cc4ccccc4[nH]3)n3cc(C(N)C(C)CC)nn3)CC2)nc(N2CCN(C(=O)C(Cc3cc4ccccc4[nH]3)n3cc(C(N)C(C)CC)nn3)CC2)n1 (stereo not given)	1%	-18	?	?	3%	-11%	18µM*
O=C(C1CCCN(Cc2cccnc2)C1)N1CCCCC1 (stereo not given)	3%	-5	2.3	-10	7%	-0.8%	50µM*
O=c1oc2ccccc2c2c1C1O[C@](c3ccsc3)(Cc3ccccc31)O2	·	·	7.1[11.7 µM]	?	·	·	-12%
COCCN(C(=O)CNC(=O)c1ccco1)C(C(=O)NC1CCCC1)c1ccccc1F (stereo not given)	9%[15.4 µM]	-2	·	6	2%	·	17%
CN(C(=O)Cn1nc(C(=O)O)c2ccccc2c1=O)C1(C#N)CCCCC1	-1%	-1	·	-8	10%	-5.1%	·
Fc1cc(F)c2nc(N3CCCCC3)sc2c1	16%	-4	0.8	-18	?	1.1%	11%
CC1CCCC(C)N1/N=C/C=C/c1ccccc1[N+](=O)[O-] (stereo not given)	-9%[15.4 µM]	-6	-1.5	5	-13%	·	13%
C/C(=N\O)c1noc(C)c1C(=O)Nc1nccs1	?	7	·	1	-6%	0.6%	18%
CNc1ccccc1C(=O)OCC(=O)N1CCc2ccccc2C1	-80%[inhibitor]	-6	·	·	·	4.3%	·
Cn1c(/C(C#N)=C/Nc2ccccn2)nc2ccccc21	?	-10	1.1	-8	-5%	4.7%	-5%
COc1ccc(CNC(=O)c2cc(-c3ccccc3OC)on2)cc1	22%	-20	-0.8	-19	1%	-0.1%	7%
COC(=O)C1OCOC2C(C(=O)OC)OCOC12 (stereo not given)	-56%[inhibitor]	0	·	·	10%	·	·
CCCCc1nc2ccc(S(=O)(=O)O)cc2[nH]1	29%	-2	2.7	9	-12%	-10%	2%
CC(C)c1ccc(-c2c(C#N)c(N)nc(SCC(=O)N3CCCCCC3)c2C#N)cc1	?	-22	-0.2	15	59%[activator]	5.7%	7%
Cc1ccc(-c2nc(C#N)c(N3CCC(C)CC3)o2)cc1	?	-7	0.2	10	-15%	3.3%	-8%
CCC(C)Nc1nc(N)c([N+](=O)[O-])c(NCc2ccccc2)n1 (stereo not given)	-8%	3	-0.9	-1	16%	-0.4%	-8%

(further entries)
SMILES	gsp ag	D2 potentiator	Menin-MLL FL inh	TRPV1 potentiator	gsp antagonist	ClpP mod	Sfp inh
CCOc1cc(CNCCO)ccc1OCC(=O)NC(C)(C)C	-6%[15.4 µM]	-6	-0.4	16	9%	·	5%
CCCCn1c(N)c(N(CC(C)C)C(=O)CSCc2cccc(C)c2)c(=O)[nH]c1=O	17%[15.4 µM]	-14	·	9	-1%	-2.9%	·
Cc1ccc(N2C(=O)[C@@H]3[C@H](C2=O)[C@H]2C=CC=NN2[C@@H]3C(=O)Nc2ccc(Cl)cc2)cc1	?	-9	5.1	1	-3%	-1.8%	40µM*
Cc1ccc(NS(=O)(=O)c2ccc(C)c(NC(=S)NCCN3CCOCC3)c2)c(C)c1	14%	-13	·	·	-1%	1.2%	·
CCCCCOc1ccccc1C(=O)NCCCCCC(=O)O	3%[15.4 µM]	-6	3.8	-3	-20%	·	12%
COc1ccc2cc(C(c3nnnn3C3CCCC3)N3CCOCC3)c3nnnn3c2c1 (stereo not given)	?	-9	0.1	2	?	·	20%
CC(NCc1ccccc1)c1ccccc1O (stereo not given)	6%[15.4 µM]	-5	0.8	-16	4%	·	12%
COc1ccc(CC(=O)OC(C)CN2CCCCC2)cc1 (stereo not given)	17%	-10	-1.2	-7	-1%	·	15%
Cc1nc(CC(=O)Nc2nccs2)cs1	10%[15.4 µM]	-8	1.9	27	12%	-0.4%	15%
CC(NC(=O)/C(C#N)=C/c1ccc(OCC(=O)O)cc1)c1ccccc1 (stereo not given)	-20%	-15	-1.1	0	7%	-1.2%	?
COc1cnc(-c2ccccc2)[nH]c1=O	-65%[inhibitor]	-4	1.2	3	5%	·	23%
C=CCNc1nc(N)c(C(=C(C#N)C#N)c2ccc(Br)cc2)s1	29%	-38	23	-2	-3%	?	-11%
Cn1cc(C(=O)NS(=O)(=O)Nc2ccc(Br)cc2)c2ccccc21	-50%[inhibitor]	1	·	16	7%	2.2%	17%
On1cnnc1-c1ccccc1	8%	-20	0.4	9	12%	0.8%	-22%
CCCCCNc1nc(NCCCO)c(C#N)c2c1CN(C)CC2	23%	-27	-2.0	-4	9%	23%	17%

Random draw from the library; any-hit rate near 5.1%.
